Compound activity from PubChem BioAssay.
HNF4A DNA FP: change in binding of human HNF4 alpha to DNA; P41235; HNF4a-FITC DNA binding, fluorescence polarization, 1 h; activity change, % at 10 µM; hit rate 0.3% among 360,000; AID 1224865; in the data active = activity change above about 30%, passing the limit was not always enough;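 also: controls were the assay level and a saturating level of protein; the project sought stronger binding though the title names inhibitors; some compounds called inactive have numbers as strong as hits; positive values seem to mean higher polarization but the record does not say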
Target sequence (P41235 whole entry, looked up): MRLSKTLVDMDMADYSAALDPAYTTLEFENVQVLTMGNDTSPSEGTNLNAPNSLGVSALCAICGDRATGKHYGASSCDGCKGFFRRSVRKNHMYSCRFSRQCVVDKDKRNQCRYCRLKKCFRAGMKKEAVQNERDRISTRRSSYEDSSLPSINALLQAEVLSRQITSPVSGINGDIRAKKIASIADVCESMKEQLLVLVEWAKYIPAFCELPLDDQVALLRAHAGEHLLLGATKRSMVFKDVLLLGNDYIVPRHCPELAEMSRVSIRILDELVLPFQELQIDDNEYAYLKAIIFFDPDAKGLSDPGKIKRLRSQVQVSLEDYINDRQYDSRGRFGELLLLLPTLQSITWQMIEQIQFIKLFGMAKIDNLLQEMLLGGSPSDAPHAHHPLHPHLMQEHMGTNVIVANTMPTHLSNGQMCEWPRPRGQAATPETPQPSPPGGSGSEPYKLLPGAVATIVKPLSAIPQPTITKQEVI
UCH37 DUB inh: inhibitors of human deubiquitinating enzyme UCH37; AID 588478; inhibition, % (test concentration not listed); purified proteasome/UCH37, Ub-AMC cleavage fluorescence; hit rate 0.33% among 330,000; Q9Y5K5;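 active = mean of two replicates above 20%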;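 also: 0% = compound-free wells with enzyme and 100% = wells lacking proteasome; stock transfer was 100 nL into about 20 µL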
Target sequence (Q9Y5K5 whole entry, looked up): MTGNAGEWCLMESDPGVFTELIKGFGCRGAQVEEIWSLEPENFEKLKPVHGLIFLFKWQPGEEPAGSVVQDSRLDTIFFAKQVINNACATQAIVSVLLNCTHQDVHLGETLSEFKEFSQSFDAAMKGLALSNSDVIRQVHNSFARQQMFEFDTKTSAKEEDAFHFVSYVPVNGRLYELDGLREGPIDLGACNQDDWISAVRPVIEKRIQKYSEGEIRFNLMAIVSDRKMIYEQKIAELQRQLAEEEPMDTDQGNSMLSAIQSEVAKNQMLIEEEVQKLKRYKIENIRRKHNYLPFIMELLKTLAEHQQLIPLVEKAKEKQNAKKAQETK
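Material: Human UCH37 enzyme supplied as purified proteasome complex | Schedule: 30 min compound-proteasome preincubation then 25 min substrate reaction, room temperature | Detection: AMC fluorescence from Ub-AMC cleavage, excitation 355 nm, emission 460 nm | Benchmarks: Wells without proteasome as full block, compound-free enzyme plus substrate as uninhibited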
Vif TR-FRET: HIV-1 Vif–A3G interaction blockers – biochemical, TR-FRET, GST-Vif 1-94, biotin-A3G peptide, dose response retest, primary screen (AID 1117319); TR-FRET GST-Vif / biotin-A3G peptide binding; higher % means a stronger effect; test concentration not given here; strong numbers were not always called active; inhibition, %; hits with a dose series show IC50 in µM; hit rate 0.57% among 260,000;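 active = above the screen mean plus three standard deviations and confirmed in dose response; inconclusive = results disagree or hit not tested in dose response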;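 also: Vif residues 1-94 fused to GST binding biotinylated APOBEC3G peptide 110-148; 0% = full assay without inhibitor and 100% = GST in place of GST-Vif; retest series ran down from 100 µM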
E coli growth: inhibitors of Escherichia coli growth | OD600, 23 h; hits give low values | OD600 absorbance (concentration not given with the values) | hit rate 0.21% among 330,000 | AID 1053175;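 active = OD600 absorbance below the run mean of sample wells minus 3.6 SD, in any replicate, cut at about 0.56 in these data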;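 also: stock transfer was 300 nL into about 60 µL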
RanGTP-Imp inh: inhibitors of RanGTP-importin-beta interaction, primary screen, biochemical, FRET, CFP-Ran, YFP-importin-beta, homogeneous | hit rate 1.1% among 300,000 | inhibition, % (test concentration not listed) | AID 2216 | cell-free CFP-Ran/YFP-importin-beta FRET ratio;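 active = most replicates above 15%; inconclusive = exactly half above 15%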;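 also: 0% = DMSO wells and 100% = Ran loaded with GDP instead of GTP; wells of about 40 µL received 100 nL stock; the first replicate is given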
FGF22 binding: FGF22 (human) thermal shift binding; Q9HCT0; recombinant FGF22 thermal shift, SYPRO orange fluorescence; percent of sucrose octasulfate shift, DMSO zero; calls only at 9.99 µM; hit rate 1.5% among 340,000; AID 651658;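 active = melting point raised past a set limit in the mean and every replicate; inconclusive = no clear call; three in four hits are not shown here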
Target sequence (Q9HCT0 whole entry, looked up): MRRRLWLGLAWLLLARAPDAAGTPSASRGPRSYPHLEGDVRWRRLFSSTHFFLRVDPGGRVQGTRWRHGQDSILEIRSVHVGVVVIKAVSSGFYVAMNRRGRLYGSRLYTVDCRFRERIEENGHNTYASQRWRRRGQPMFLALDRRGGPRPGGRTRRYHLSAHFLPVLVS
MLL AF4-AF9 inh: blocks AF4 peptide binding to human AF9; AlphaScreen, biotin-AF4 peptide binding to FLAG-AF9; inhibition, % at 10 µM; hit rate 0.47% among 350,000; AID 651704;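 active = every replicate reaching a set inhibition limit, whatever the replicate mean, cut at about 25% in these data; inconclusive = mean inhibition reaches that limit but some replicates miss it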;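 also: 0% = plate neutral control median and 100% = total signal loss; the record names both 10 and 1 µM as test concentration; the first replicate is given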
* = called active by the depositor; i = inactive; u = inconclusive; x = no result given. A portion of the library (hit frequency here may not be typical).

SMILES | HNF4A DNA FP | UCH37 DUB inh | Vif TR-FRET | E coli growth | RanGTP-Imp inh | FGF22 binding | MLL AF4-AF9 inh
CC1CN(S(=O)(=O)c2ccccc2)C(C)CN1S(=O)(=O)c1ccccc1 (stereo unspecified) | -5.1 | -0.5 | 2% | 0.74 | -1.0 | x | x
Cc1cc2c(cc1C)NC1(C(=O)Nc3ccccc31)C1=C(CC(C)(C)CC1=O)N2 (stereo unspecified) | 1.5 | 12 | -1% | 0.77 | -6.1 | x | x
O=C(CN1C(=O)c2cccnc2Oc2ccc(Cl)cc21)Nc1ccc(F)cc1 | 3.6 | -8.0 | -8% | 0.73 | -4.4 | i | 1.9
CCC1CCCN1Cn1cnc2c([nH]c3ccc(Cl)cc32)c1=O (stereo unspecified) | 1.8 | -12 | 16% | 0.67 | -0.1 | x | x
CC(=O)c1cccc(OC(=O)c2ccc3c(=O)n4c(nc3c2)CCC4)c1 | -0.6 | 2.5 | 4% | 0.68 | 4.6 | x | x
COc1cn(-c2ccccc2)nc1C(=O)NCc1ccccc1 | -0.5 | -7.2 | 7% | 0.63 | -3.9 | i | 8.1
Cc1nc2nc(-c3ccco3)nn2c(C)c1Cl | -4.7 | -131 | >100µM* | 0.76 | -0.3 | x | x
CC(C)C(=O)Nc1ccc(C(=O)NNC(=S)NC(=O)c2ccccc2[N+](=O)[O-])cc1 | 0.1 | 8.9 | -7% | 0.69 | 3.3 | i | 0.9
OC(CNCc1cccs1)c1ccccc1 (stereo unspecified) | 0.2 | -1.5 | -1% | 0.7 | 3.6 | x | x
COc1ccccc1CCC(=O)Nc1cccc(S(=O)(=O)N2CCOCC2)c1 | 0.5 | x | 20% | x | 5.8 | i | -5.9
Nc1ccc(Nc2ccncc2[N+](=O)[O-])cc1 | -2.1 | 5.4 | 0% | 0.64 | 4.0 | x | x
COc1ccc(C(=O)OCC(=O)NC(=O)Nc2ccccc2F)c(OC)c1 | 0.6 | 2.9 | x | 0.72 | x | i | -3.2
O=C(NCc1ccc2c(c1)OCO2)C1CCN(S(=O)(=O)c2cccs2)CC1 | -1.6 | 2.6 | u | 0.74 | -5.5 | x | x
COC(=O)c1sccc1NC(=O)C1CC=CCC1C(=O)O (stereo unspecified) | -0.2 | 3.8 | -3% | 0.76 | 2.8 | x | x
Cc1ccc(OCCN2C(=O)c3ccccc3C2=O)c(C)c1 | 0.5 | 2.0 | -2% | 0.66 | 5.9 | x | x
CCCCOc1ccc(CSc2n[nH]c(C)n2)cc1 | -1.9 | 5.9 | -8% | 0.66 | -0.8 | x | x
O=C(O)c1cccc(Nc2ccnc(Nc3cccc(C(=O)O)c3)n2)c1 | 0.6 | 4.6 | x | 0.68 | -5.9 | i | 4.4
CC(NC(=O)Cc1ccsc1)c1ccc(S(N)(=O)=O)cc1 (stereo unspecified) | -1.5 | 0.5 | -4% | 0.68 | -1.0 | x | x
CCOC(=O)c1ccccc1NS(=O)(=O)c1ccc(OCC)cc1 | 3.0 | 2.0 | 3% | 0.67 | -0.6 | x | x
CCn1c2ccccc2c2nn(C)c(=N)nc21 | 1.7 | 3.2 | 4% | 0.7 | 1.5 | x | x
CCCC(=O)Nc1ccccc1-c1nnn(CC(=O)Nc2ccc(OC)cc2)n1 | -0.9 | 0.8 | 1% | 0.69 | 3.4 | x | x
COC(=O)Cc1c(O)ccn(CCc2c[nH]c3ccc(OC)cc23)c1=O | 0.1 | -2.4 | 5% | 0.72 | -0.8 | x | 11
CN1C(=O)C(O)(c2sc(N)nc2-c2ccccc2)c2ccccc21 (stereo unspecified) | 4.7 | 0.8 | 4% | 0.76 | -2.6 | x | x
C#CCNC(=O)c1cc2sccc2n1C | 1.7 | 1.3 | 11% | 0.68 | 3.1 | i | -1.4
S=C(Nc1ccccc1)N1CCN(Cc2ccccc2)CC1 | 1.9 | 5.5 | 2% | 0.66 | 2.1 | i | 1.2
CC1=CC(=O)C=CC1=Nc1ccc(N(C)C)cc1 | 2.2 | x | x | x | x | i | 91*
CCOc1ccc(C(=O)Nc2ccc(N3CCN(S(C)(=O)=O)CC3)cc2)cc1[N+](=O)[O-] | 2.1 | 1.3 | x | 0.63 | -2.5 | i | -2.6
COc1ccc(CCNC(=O)C2CC(=O)N(C3CCCCC3)C2)cc1OC (stereo unspecified) | -4.2 | 4.5 | x | 0.71 | 2.4 | i | -1.9
CCOC(=O)C(NCc1ccccc1)(NC(=O)c1ccccc1)C(F)(F)F (stereo unspecified) | 1.5 | 0.2 | 2% | 0.73 | 0.5 | x | x
Cn1c(=O)oc2cc(S(=O)(=O)Nc3ccc(O)cc3)ccc21 | -0.3 | 4.5 | x | 0.71 | 6.4 | i | 0.6
CCC(c1nnnn1-c1c(C)cccc1C)N1CCCN(Cc2ccc(F)cc2)CC1 (stereo unspecified) | -0.8 | x | x | x | x | i | 5.8
O=C(CNC(=O)c1ccco1)OCC(=O)c1ccc(Cl)cc1 | -2.1 | -0.1 | 2% | 0.73 | 0.5 | i | -8.8
CCCCn1nnnc1C1(C)CCC(=O)N1Cc1ccc(OC)cc1 (stereo unspecified) | -0.2 | x | x | x | x | i | -0.3
CCN1CCN(C(=O)CCc2nc3ccccc3c(=O)[nH]2)CC1 | -3.2 | -0.6 | 29% | 0.73 | -0.4 | x | x
COc1ccccc1S(=O)(=O)c1c(C)cc(C)[nH]c1=O | 4.1 | 1.0 | -3% | 0.69 | 0.2 | i | -2.5
CN(C(=O)c1cc([N+](=O)[O-])ccc1N1CCCC1)C1CCCCC1 | 3.5 | 7.3 | x | 0.68 | 0.2 | i | 4.2
CC(C)(C)c1ccc(NC(=O)Cn2cnc3cc([N+](=O)[O-])ccc3c2=O)cc1 | 1.1 | 1.5 | -9% | 0.61 | -1.3 | i | -2.2
O=C(Cc1n[nH]c(=O)c2ccccc12)OCC(=O)c1ccccc1Cl | -3.0 | 1.1 | -2% | 0.65 | -2.8 | i | -9.0
O=C(COC(=O)CCc1nc2ccccc2c(=O)[nH]1)Nc1ccc(OC(F)(F)F)cc1 | 3.4 | 3.5 | 10% | 0.73 | x | i | -9.3
Cc1nc(SCc2nc3ccccc3[nH]2)c2oc3cc(Br)ccc3c2n1 | 15 | -3.2 | x | 0.81 | x | i | -0.9
CC1CCN(Cc2nnnn2CCCC(=O)NCC(C)(C)N2CCOCC2)CC1 | -3.4 | 5.5 | x | 0.7 | 1.3 | i | -0.5
Cc1cnc(C(=O)NCc2ccc(F)cc2)cn1 | -3.7 | 1.4 | 3% | 0.69 | -1.4 | i | 1.7
S=C(Nc1ccccc1)Nc1ccccc1Br | 5.6 | 1.3 | -9% | 0.66 | 4.3 | i | -31
CN(C)c1cc[n+](CC(=O)N2CCCc3ccccc32)cc1 | 1.8 | 1.1 | 7% | 0.68 | -0.7 | i | -1.9
CCc1cccc(NC(=O)c2ccc(Cn3nc(C)cc3C)o2)c1 | -5.8 | 0.0 | 5% | 0.64 | 0.5 | x | x
C[C@H]([C@@H](N)C(=O)N[C@@H](C(=O)O)[C@@H]1O[C@H](n2ccc(=O)[nH]c2=O)[C@@H](O)[C@H]1O)[C@@H](O)c1ccc(O)cn1 | -10 | 0.9 | x | x | -2.2 | i | 1.6
O=C(O)CC1S/C(=N\N=C2\C(=O)Nc3ccccc32)N(c2ccc(O)cc2)C1=O (stereo unspecified) | 0.2 | x | -3% | x | 1.0 | i | 5.5
CCOC(=O)N1CCN(C(=O)CSc2ncnc3sccc23)CC1 | -0.6 | 2.8 | 0% | 0.68 | x | i | 0.1
CC#CC(=O)N1CCC(Oc2cccc(C(=O)NCc3ccccn3)c2)CC1 | -0.1 | -1.8 | x | 0.69 | -2.8 | i | -2.1
COc1ccc(Cc2nc(C(=O)NCc3ccccc3OC)cs2)cc1 | -1.3 | 2.1 | 5% | 0.78 | 0.3 | x | x
COC(=O)c1c(C(=O)OC)c(C)n(Cc2ccco2)c1C | 1.1 | 1.5 | 1% | 0.7 | -5.0 | x | x
Nc1ccc(S(=O)(=O)Nc2nc(-c3ccccc3)cc(-c3ccccc3O)n2)cc1 | 1.9 | x | -1% | x | x | i | -3.5
CC(C)(C)CC(C)(C)NC(=O)Nc1cccc([N+](=O)[O-])c1 | -0.6 | 2.0 | -1% | 0.66 | u | i | 4.2
Cc1ccccc1OCc1nc(-c2ccc(NC(=O)c3ccco3)cc2)no1 | 4.8 | -3.1 | 17% | 0.67 | x | x | x
COc1ccc(S(=O)(=O)N2CCCCC2)cc1NC(=O)c1cccnc1SC | -0.8 | -1.7 | 11% | 0.73 | 6.2 | i | -1.7
COc1cccc(C2c3cc4c(cc3OC(N3CCOCC3)C2C)OCO4)c1O (stereo unspecified) | 0.2 | x | -4% | x | x | i | 4.9
c1ccc2c(-c3nc(-c4ccncc4)no3)cccc2c1 | 4.0 | -23 | 8% | 0.66 | 6.2 | x | x
O=C(NCCc1c[nH]c2ccccc12)C(=O)NCC1OCCN1S(=O)(=O)c1ccc(Cl)cc1 (stereo unspecified) | 1.7 | 2.7 | 14% | 0.71 | 2.1 | i | -153
CCc1ccc(Nc2nc(N)nc(CSc3nc4ccccc4s3)n2)cc1 | -3.3 | -1.8 | x | 0.71 | 2.6 | x | x
O=C(NCc1cccs1)c1ccc(Cl)c(S(=O)(=O)N2CCCC2)c1 | -1.7 | -0.6 | -7% | 0.66 | u | i | -0.2

Gathered by group, the compounds so far with a COOH group (4)
SMILES | HNF4A DNA FP | UCH37 DUB inh | Vif TR-FRET | E coli growth | RanGTP-Imp inh | FGF22 binding | MLL AF4-AF9 inh
COC(=O)c1sccc1NC(=O)C1CC=CCC1C(=O)O (stereo unspecified) | -0.2 | 3.8 | -3% | 0.76 | 2.8 | x | x
O=C(O)c1cccc(Nc2ccnc(Nc3cccc(C(=O)O)c3)n2)c1 | 0.6 | 4.6 | x | 0.68 | -5.9 | i | 4.4
C[C@H]([C@@H](N)C(=O)N[C@@H](C(=O)O)[C@@H]1O[C@H](n2ccc(=O)[nH]c2=O)[C@@H](O)[C@H]1O)[C@@H](O)c1ccc(O)cn1 | -10 | 0.9 | x | x | -2.2 | i | 1.6
O=C(O)CC1S/C(=N\N=C2\C(=O)Nc3ccccc32)N(c2ccc(O)cc2)C1=O (stereo unspecified) | 0.2 | x | -3% | x | 1.0 | i | 5.5

(listing goes on)
SMILES | HNF4A DNA FP | UCH37 DUB inh | Vif TR-FRET | E coli growth | RanGTP-Imp inh | FGF22 binding | MLL AF4-AF9 inh
Cc1cc(C)n(-c2nc3c(c(=O)[nH]c(=O)n3C)n2CCc2ccccc2)n1 | -0.3 | 0.4 | 0% | 0.7 | 2.2 | x | x
O=C(NCc1cccc(F)c1F)C1CCC(=O)N(C2CC2)C1 (stereo unspecified) | -0.2 | 0.1 | x | 0.66 | -5.4 | i | 0.2
Cc1cccc(-c2nnn3c2nc(NCCc2ccc(S(N)(=O)=O)cc2)c2ccccc23)c1 | -11 | -337 | -65% | 0.7 | 9.6 | x | x
COc1ccc(CN2CCC(N3CCC(C(=O)N4CCOCC4)CC3)CC2)c(F)c1 | 6.1 | -0.8 | x | 0.69 | 5.7 | i | 2.7
CCn1cc(C(=O)NC(C)CCc2ccccc2)c(=O)c2cc(S(=O)(=O)N(C)C)ccc21 (stereo unspecified) | 3.8 | 7.0 | 5% | 0.65 | 1.2 | i | 1.8
CCOC(=O)Cc1csc(NC(=O)CSc2nnnn2-c2ccc(CC)cc2)n1 | -1.4 | -3.2 | 3% | 0.69 | -3.7 | x | x
CCn1c(SCc2ccccc2)nnc1-c1cccs1 | 0.5 | 4.2 | 15% | 0.73 | 0.0 | x | x
Cc1ccc(C(=O)Cc2ccccc2)o1 | 0.1 | 2.6 | x | 0.69 | 0.8 | i | -9.2
